# Menin MLL FP FL: qHTS Assay for Inhibitors Targeting the Menin-MLL Interaction in MLL Related Leukemias: Competition With Fluorescein Labeled MLL-derived Peptide. 290,000 tested, under 10 active. FP activity change, % at 61.4 µM. Fluorescence polarization, fluorescein-MLL peptide displacement from menin; inconclusive = falling polarisation curve, or a change in total fluorescence; inactive = total fluorescence flat and polarisation flat or rising; no compound was filed as active; the % refers to the polarisation; negative = inhibition;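 note: % of control where 0% means no effect; inhibitors lower the polarisation; unlabelled MLL peptide was the positive control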
# TRPML1 inh: qHTS for Inhibitors of the Human Mucolipin Transient Receptor Potential 1 (TRPML1); hit rate 0.02% among 390,000; TRPML1-inducible cells, Ca2+ dye fluorescence, FDSS; stronger effect = lower value; inhibition of EC80 agonist-evoked calcium signal; AID 624415, 2012; activity change, negative = inhibition, % (test concentration not listed); in the data active means activity change below about -50%; inconclusive means about -30% to -50%; inactive means above about -30%;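 note: stimulus is agonist 54-4 at its EC80 concentration; % is set by controls: 0 for no effect and ±100 for the full control effect; compound concentration not given in the record; the text of the record puts the active cut at -80%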
#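 Tet-induced TRPML1-DL cells loaded with Ca8 no-wash calcium dye were read kinetically on FDSS. Compound addition was followed by EC80 agonist 54-4 (4 uM final); inhibition was read over 110 s.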
# PINK1 modulator: A Quantitative High throughput Screen to Identify Chemical Modulators of PINK1 Expression; PINK1 immunofluorescence, high-content cytometry, 24 h; hit rate 0.2% among 410,000; Potency, µM (titrated, usually from 76.6 µM), inactives show top-dose activation (PINK1 increase), usual class: activators; active = well fitted activation curve with a large enough effect; inconclusive = small, poorly fitted or top-dose-only effect; inactive = flat fitted curve, though single readings scatter; cell line not stated here;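 note: potency is the fitted concentration of half-maximal effect; % of control where 0% means no effect; nearly all actives have a fitted effect of over 65% in size; a mitochondrial uncoupler was the plate control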
#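 Stable cell line treated 24 h with compounds at 5 concentrations (CCCP controls), then fixed and immunostained for PINK1 plus nuclear and cell stains; PINK1 immunofluorescence quantified by laser-scanning microplate cytometry.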
# Sfp PPTase inh: qHTS Assay for Inhibitors of Bacillus subtilis Sfp phosphopantetheinyl transferase (PPTase) | 4'-phosphopantetheinyl transferase ffp (Bacillus subtilis), Q9F4F7 | Biochemical Sfp PPTase activity, qHTS | Potency, µM, without a hit: max response, negative = inhibition, most hits filed as inhibitors | hit rate 3.5% among 310,000; active = well fitted inhibition curve with a large enough effect; inconclusive = small, poorly fitted or top-dose-only effect, or another doubt; inactive = no such curve, though single readings can be large or run the other way;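 note: the enzyme is Sfp with the accession as filed and its product quenches rhodamine fluorescence; potency is the fitted concentration of half-maximal effect; 0% = enzyme reaction without inhibitor and -100% = no enzyme wells; top concentration of the series not given in the record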
#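 After 15 min at room temperature with compound, 15 nM Sfp received 5 uM rhodamine-CoA plus 12.5 uM BHQ-2-ybbR (50 mM Hepes pH 7.6, 10 mM MgCl2). Rate came from the fluorescence difference over 30 min, ex 525/em 598 nm.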
# ClpP mod: qHTS Assay for Activators of ClpP; ATP-dependent Clp protease proteolytic subunit (Bacillus subtilis (strain 168)), P80244; purified B. subtilis ClpP, FRET peptide cleavage, 20 min; Potency, µM (doses to about 57.5 µM), inactives show at the highest dose activity change, negative = active; hit rate 1.9% among 340,000; active = well fitted falling curve with a large enough effect; inconclusive = small, poorly fitted or top-dose-only effect; inactive = no such curve, though single readings can be large or run the other way; note: potency is the fitted concentration of half-maximal effect; the source files actives as falling curves though it sought activators and does not explain the sign; nearly all actives have a fitted effect of over 65% in size; many hits overshoot -100%
# Target sequence (P80244 whole entry, looked up): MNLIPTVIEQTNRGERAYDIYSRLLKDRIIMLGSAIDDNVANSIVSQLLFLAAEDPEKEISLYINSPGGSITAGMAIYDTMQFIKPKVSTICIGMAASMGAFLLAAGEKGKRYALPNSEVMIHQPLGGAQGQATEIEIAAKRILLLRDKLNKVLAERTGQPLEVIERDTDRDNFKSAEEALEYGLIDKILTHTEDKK
#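 Purified B. subtilis ClpP, 10 microg/mL final in Tris/HCl pH8 with KCl, BSA, glycerol and Tween-20, cleaved an Abz/nitrotyrosine-quenched decapeptide. Fluorescence (ex 320, em 430) was read at 0 and 20 min at room temperature. Delta was normalized to 5.8 microM ADEP and DMSO/no-enzyme controls.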
# TRPV1 potentiator: HTS Assay for Compounds that Act as Potentiators of the Vanilloid Receptor 1 | TRPV1-expressing cells, Fluo-8 calcium influx, capsaicin EC20 potentiation; host cell line not named in the record; control for the full effect not named in the record | potentiation, % at 8.33 µM | hit rate 0.02% among 320,000; active means potentiation above 80%; inconclusive means 30% to 80%; inactive means below 30%; note: 0% is about no effect
# Target sequence (Q8NER1 whole entry, looked up): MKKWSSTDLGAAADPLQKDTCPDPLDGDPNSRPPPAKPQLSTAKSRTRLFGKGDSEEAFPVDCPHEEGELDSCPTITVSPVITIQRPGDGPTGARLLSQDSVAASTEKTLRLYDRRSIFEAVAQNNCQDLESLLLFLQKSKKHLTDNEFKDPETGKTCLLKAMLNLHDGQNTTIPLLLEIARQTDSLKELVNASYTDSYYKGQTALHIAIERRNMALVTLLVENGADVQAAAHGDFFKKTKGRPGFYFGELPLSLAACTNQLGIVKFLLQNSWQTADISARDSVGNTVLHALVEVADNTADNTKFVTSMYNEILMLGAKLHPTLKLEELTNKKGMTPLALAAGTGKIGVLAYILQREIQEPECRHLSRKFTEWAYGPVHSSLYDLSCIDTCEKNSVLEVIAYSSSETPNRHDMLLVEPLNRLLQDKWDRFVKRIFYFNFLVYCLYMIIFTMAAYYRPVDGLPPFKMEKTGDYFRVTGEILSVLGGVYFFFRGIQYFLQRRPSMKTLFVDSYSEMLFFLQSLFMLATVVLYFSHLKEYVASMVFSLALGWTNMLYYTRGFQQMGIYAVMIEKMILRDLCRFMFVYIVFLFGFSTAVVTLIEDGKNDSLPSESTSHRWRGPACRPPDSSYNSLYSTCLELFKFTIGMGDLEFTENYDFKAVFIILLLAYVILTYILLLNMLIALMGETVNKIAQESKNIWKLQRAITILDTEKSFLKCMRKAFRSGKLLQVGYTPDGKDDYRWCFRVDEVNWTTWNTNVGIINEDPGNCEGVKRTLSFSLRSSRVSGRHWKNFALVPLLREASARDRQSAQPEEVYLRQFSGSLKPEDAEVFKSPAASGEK
#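 Cells expressing TRPV1 were dye-loaded with Fluo-8 and read kinetically: 10 s baseline, 3 min after compound (agonist portion), then 2 min after EC20 capsaicin (allosteric enhancer portion). Calcium-bound dye fluorescence at 480/520 nm.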
# TRPML1 agonist: qHTS for Agonists of the Human Mucolipin Transient Receptor Potential 1 (TRPML1) | Mucolipin-1 (Homo sapiens), Q9GZU1 | TRPML1-expressing cells, Ca2+ dye fluorescence, FDSS; host cell line not named in the record; reference of the full effect not given here | activation, % (test concentration not listed) | hit rate 0.12% among 410,000 | AID 624414, 2012; in the data active = activation above about 50%; inconclusive = about 30% to 50%; inactive = below about 30%; note: 0% is about no effect; the text of the record puts the active cut at 80%
#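 Calcium fluorescence on an FDSS kinetic reader gave the read-out. Tet-induced TRPML1-DL cells were plated overnight, dye-loaded (Ca8 with quencher, 45-90 min, room temperature, dark), then read 110 s after compound addition, and again 110 s after 4uM final 54-4 (EC80).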
# Numbers without * were called inactive; ? = inconclusive; / = not tested or not shown; & = joins results of further samples; [ ] = dose if it differs, or a comment. Compounds as they come. Share with any hit: about 4.4%.
structure,Menin MLL FP FL,TRPML1 inh,PINK1 modulator,Sfp PPTase inh,ClpP mod,TRPV1 potentiator,TRPML1 agonist
COc1ccc(NC(=O)O/N=C/c2c(C)nn(C(C)(C)C)c2C)cc1,-1.3,4.2,1.3%,10.0%,1.6%,9.6,-0.6
CCN(C(=O)CCS(=O)(=O)c1cccc2nonc12)c1ccc(C)c(C)c1,0.8,10.4,1.9%,3.2%,/,-8.6,-0.6
COc1cccc(N(C(=O)CNC(=O)c2ccco2)C(C(=O)NC2CCCCC2)c2ccncc2)c1 (centres undefined),0.6,29.5,-2.1%,6.5%,0.2%,-7.0,0.1
COCCCNC(=O)c1ccc2nc([C@@H]3O[C@H](CO)[C@H](O)[C@H](O)[C@H]3O)[nH]c2c1,/,-10.8,5.7%,/,-0.6%,/,-0.3
O=C(NCCSCc1ccccc1Cl)C1CCN(S(=O)(=O)Cc2ccccc2)CC1,/,9.6,6.3%,/,-1.5%,/,0.0
O=C(N/N=C/c1cn(-c2ccccc2)nc1-c1ccc2c(c1)OCCO2)c1ccncc1,2.1,-16.1,0.6%,15.4%,/,-8.1,0.3
C/C(CCc1ccccc1)=N\NC(=O)COc1ccccc1C,-4.2,-12.4,2.2%,15.6%,/,10.8,-0.5
Cn1c(C(=O)c2ccccc2)nc2ccccc21,-4.6,/,4.2%,6.0%,-0.4%,6.0,/
CCOc1ccccc1NC(=O)Nc1cccc(NC(C)=O)c1,2.0,-27.0,0.6%,10.1%,-0.8%,0.1,-0.2
COc1ccc(-c2noc(-c3ccc(NC4CCCCC4)c([N+](=O)[O-])c3)n2)cc1,/,-8.7,1.5%,/,1.3%,/,0.2
O=C(CSc1nnc2scc(-c3ccccc3)n12)Nc1nsc(-c2ccc(Cl)cc2)n1,/,4.1,0.6%,/,-12.8%,/,1.8
[O-][n+]1c2cc(C(F)(F)F)ccc2c2n1CCN=C2c1ccc(Cl)cc1,/,29.7,1.6%,/,-11.7%,2.6,0.4
CC(C)N(C(=O)Cn1cc(S(=O)(=O)CC(=O)NCCc2ccccc2)c2ccccc21)C(C)C,/,3.4,-0.6%,/,0.9%,/,-0.7
COc1ccc(-c2noc(CSc3nnc(-c4ccncc4)n3-c3ccc(OC)cc3)n2)cc1,/,21.4,1.4%,/,-1.1%,/,2.1
O=C(CN1C(=O)c2ccccc2C1=O)NCC(=O)Nc1ccccc1,/,17.7,-0.2%,/,-1.3%,/,-0.4
Cc1ccc2nc(Cl)c3cc(C(=O)N(C)C4CCCCC4)sc3c2c1,/,-18.7,-0.9%,/,-3.2%,/,0.9
CCN(c1ccccc1)S(=O)(=O)c1ccc2c(c1)CCCN2C(C)=O,3.7,26.9,1.8%,17.7%,/,-5.2,0.3
Cc1nc(C)c(C(=O)N/N=C/c2cc(Br)ccc2O)s1,?,-4.0,1.9%,13.8%,3.5%,8.1,2.8
COc1cc(NC(=O)c2cc(OC)c(OC)c(OC)c2)c(OC)cc1NC(=O)CN1CCCCC1,10.3,-5.8,4.0%,11.8%,-1.3%,12.0,0.5
C1=C[C@H]2CCCN3CC[C@@H]([C@@H]2[C@]32CO2)[C@H]1CCOCc1ccccc1,/,/,2.4%,/,0.4%,/,-0.2
C=CCOC(=O)COc1ccc2c3c(c(=O)oc2c1)CCCC3,/,2.2,-0.3%,/,3.8%,/,0.1
COc1cccc(CNS(=O)(=O)c2ccc3c(c2)CC(C)N3C(=O)C2CCC2)c1 (centres undefined),0.5,?,1.6%&1.2%,20.3%,-2.2%,-10.8,0.9&3.4
O=C(CCN1CCCCO1)NC1CCCc2c1cnn2-c1ccc(F)cc1F (centres undefined),/,-1.9,1.1%,/,-4.2%,/,-0.8
Cc1cccnc1C(NC(=O)C1CCN(Cc2ccc(Oc3ccccc3)cc2)CC1)c1ccccc1 (centres undefined),/,/,?,/,-5.6%,/,-0.1
FC(F)(F)c1cc(-c2ccc(Cl)cc2)nc2ncnn12,1.8,-7.8,1.2%,14.8%,2.82µM*,0.0,-0.7
O=[N+]([O-])c1ccc(Oc2cnc3ccccc3n2)cc1,-1.2,-17.9,2.9%,-11.0%,/,-8.1,2.3
CCOC(=O)CC(=O)CSc1nc(N)c(C#N)c(-c2ccc(Cl)cc2)c1C#N,16.0,-2.5,2.1%[38.3 µM],-24.8%,?,9.9,0.8
CCc1ccccc1Nc1nn2c(=O)c3ccc(C(=O)NC4CCC(C)CC4)cc3nc2s1 (centres undefined),/,-0.9,-3.5%,/,-17.6%,/,0.6
CCOc1ccc(CCNC(=O)CN2C(=O)NC3(CCCC3)C2=O)cc1OCC,/,-6.9,-0.3%,2.6%,0.9%,6.3,-0.7
Cc1nc(C2CC(=O)OC23CCCCC3)cs1 (centres undefined),2.9,-0.1,-3.3%,7.9%,-1.2%,-0.2,0.3

# Next section:
structure,Menin MLL FP FL,TRPML1 inh,PINK1 modulator,Sfp PPTase inh,ClpP mod,TRPV1 potentiator,TRPML1 agonist
CCOC(=O)N1CCN(C(=O)COc2ccc(S(=O)(=O)NC(C)C)cc2)CC1,3.4,-3.9,1.6%,24.9%,-3.3%,2.6,0.6
Cc1cccc(C(=O)NCC(=O)N(C)CC(=O)Nc2ccc(N3CCOCC3)cc2)c1,/,20.1,1.9%,6.0%,1.1%,-7.5,0.3
CCC(C)N(C)C1CCN(C(=S)Nc2ccc(OC)cc2)CC1 (centres undefined),1.9,14.4,-0.2%,-9.2%,/,7.4,0.4
CC1CCC(C(C)C)C(OC(=O)COC(=O)c2cccn2C)C1 (centres undefined),2.1,3.7,1.5%,-2.3%,-0.3%,-14.3,0.1
Oc1ccccc1C1C=C(c2ccc3c(c2)OCO3)NC(c2cccc(Cl)c2)N1 (centres undefined),/,/,-0.8%,/,-3.1%,/,-0.8
O=C(/C=C\c1ccc2c(c1)OCO2)NC1CC(=O)N(c2cccc(F)c2)C1 (centres undefined),/,-9.8,0.4%,/,?,/,-0.5
CCn1c(CNC(=O)c2cccs2)n[nH]c1=S,-1.5,-9.9,0.1%,-3.2%,3.5%,19.0,1.3
COc1ccc(NC(=O)COC(=O)Cc2ccccc2[N+](=O)[O-])cc1OC,0.4,-3.2,-1.7%,-5.2%,2.5%,-3.0,1.6
CCOc1cccc(C(=O)N(Cc2cccc(F)c2)C2CCS(=O)(=O)C2)c1 (centres undefined),-2.2,6.1,-1.0%,8.0%,-1.4%,0.6,-0.7
O=C(NCc1ccccc1)c1ccc(NC(=O)C2CC2)cc1,/,18.9,-0.6%,/,0.1%,/,0.8
Nc1nc(N)c(Br)c(Nc2ccc(Cl)c(Cl)c2)n1,/,-14.4,-3.9%,/,/,/,1.5
Cn1cc(Cl)c(C(=O)N2CCN(c3ncccn3)CC2)n1,6.0,-6.9,2.4%,-0.5%,-5.7%,7.2,-0.8
CCc1ccc(C2C(C#N)=C(N)N(N3CCOCC3)C3=C2C(=O)CC(C)(C)C3)s1 (centres undefined),-0.9,15.1,1.5%,2.7%,/,4.3,-0.4
COc1cc(C(=O)OCC(=O)NCCCc2ccccc2)ccc1OCC(C)C,/,26.0,3.1%,17.6%,-1.3%,5.5,-0.5
CC1(C)C(C=C(Cl)Cl)C1C(=O)N/N=C/c1ccccc1F (centres undefined),-15.4,-28.5,?,13.0%,/,6.5,-0.4
O=C(CSc1ccccc1[N+](=O)[O-])NC1CCS(=O)(=O)C1 (centres undefined),2.1,-21.8,-1.4%,-5.0%,-2.2%,-10.1,1.4
O=S(=O)(c1ccc(F)cc1)n1ccc(-c2cccc(OCc3c(F)cccc3Cl)c2)n1,-0.7,6.8,1.8%,28.6%,0.8%,-7.6,0.1
COc1ccc(CC(=O)c2ccccc2C(=O)O)cc1,-0.8,-6.2,-2.6%[38.3 µM],-1.4%,1.2%,-1.9,0.2
O=C(COC(=O)Cc1ccc(Cl)cc1)Nc1ccc2[nH]c(=O)[nH]c2c1,/,-7.3,-1.7%,/,-1.8%,-15.3,0.6
CCn1c(O)c(C=Nc2ccccc2)sc1=O,0.4,-26.0,3.4%,16.8%,0.6%,-8.1,0.1
COc1ccc(S(=O)(=O)N2CCC(C(=O)NCCCN3CCOCC3)CC2)cc1,-4.4,-13.0,1.4%,6.4%,-2.6%,8.1,4.1
O=C(NCCSc1c(-c2ccccc2)[nH]c2ccccc12)c1ccc(S(=O)(=O)N2CCOCC2)cc1,/,18.0,2.2%,/,-5.7%,/,0.2
CN(c1ccccc1)S(=O)(=O)c1cccc(NC(=O)c2ccc(=O)[nH]c2)c1,/,24.6,1.2%,/,-0.9%,8.5,-0.6
COc1ccc(CNC(=O)CSc2n[nH]c(-c3ccc(F)cc3)n2)cc1,/,1.4,0.7%,/,-0.5%,/,-0.2
COc1ccccc1CSc1ncc(-c2ccc([N+](=O)[O-])cc2)[nH]1,/,12.8,?,7.3%,-1.9%,2.3,0.7
COc1ccc(-c2ncncc2-c2ccccc2)c(O)c1,-1.2,/,-1.3%,8.0%,2.7%,-0.9,/
CC(C)(C)c1ccc(C(=O)NCC(=O)N2CCNC(=O)C2)cc1,/,-5.9,-0.9%,13.2%,/,-1.3,0.7
Cn1c(=O)c(C(=O)NC2CCCCCC2)c(O)c2ccccc21,-2.8,/,1.5%,29.2%,-4.1%,21.8,/
Cc1ccc([N+](=O)[O-])cc1N=C(c1ccc([N+](=O)[O-])cc1)N1CCOCC1,-2.2,15.8,-0.6%,-9.8%,0.2%,-19.8,-0.4
CC(C)C(NC(=O)OCc1ccccc1)C(=O)OCC(=O)N1C(C)CCCC1C (centres undefined),3.1,-8.8,-0.2%,-8.2%,0.7%,29.8,-0.1
Cn1c(=O)cc(SCC(=O)N2CCCC2)c2cc(Cl)ccc21,1.8,-7.6,/,4.3%,-10.3%,5.7,-0.1
Cc1ccccc1NC(=O)c1cc(N)ccc1N1CCCCC1,-1.3,38.6,2.6%[38.3 µM],-15.9%,-0.8%,-34.9,1.7

# Screening results (PubChem)
